Screening data (PubChem BioAssay)
KSHV LANA nucl: LANA-nucleosome interaction inhibition; FITC-LANA1-23 / chicken nucleosome fluorescence polarization; hits give low values; z-score (test concentration not listed); hit rate 0.3% among 51,000;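 active means both repeat wells score below -2 in polarization z-score versus plate sample wells, excluding overly bright wells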;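 further: 100 nL library stock added to about 30 µL; numbers are from one replicate; some results filed as inactive read as strong as hits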
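System – purified chicken nucleosomes with FITC-labelled LANA N-terminal peptide (1-23) · Amount – 240 nM purified chicken nucleosomes (480 nM peptide binding sites), final · Also added – 50 nM FITC-LANA1-23 probe · Medium – TEN-BT buffer, pH 7.5 · Incubation – compound with peptide–nucleosome mix 10–45 min at room temperature · Detection – fluorescence polarization, ex 480 nm, em 535 nm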
Ab BasE inh: blocks the Acinetobacter baumannii siderophore enzyme BasE. purified BasE, fluorescence polarization binding displacement. inhibition, % (test concentration not listed). hit rate 0.1% among 84,000;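 active means both replicates above 25% with normal brightness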;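 further: 0% = negative plate control signal and 100% = positive plate control signal; stock transfer was 100 nL into about 30 µL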
Numbers without * were called inactive; . = not tested or not shown; & = joins results of further samples. These rows are one share of the data (hit frequency here may not be typical).

SMILES	KSHV LANA nucl	Ab BasE inh
Cc1nnsc1-c1onc(C)c1C(=O)O/N=C/c1ccc(Cl)cc1	-0.33	1.2
O=C(Cc1ccccc1)Nc1ccc(NC(=O)c2cccs2)cc1	.	1.1
CC(OC(=O)c1cccnc1SC(C)C(=O)NC1(C#N)CCCCC1)C(=O)NC1(C#N)CCCCC1 (stereo not given)	.	-1.2
CC(C)(C)c1nnc(NC(=O)CS(=O)(=O)Cc2ccccc2)s1	0.035	3.3
CC1=NC(C)(C)Cc2ccccc21	-0.93	23
N#CC1CN(CCc2ccccc2)CN(CCc2ccccc2)C1	.	2.5
O=S1(=O)c2cccc3cccc(c23)N1Cc1nc2ccccc2s1	.	0.2
O=C1CCCN1C(=O)CSc1nnnn1-c1ccccc1	.	-1.5
Cc1cc(C)c(NC(=O)CC#N)c(C)c1	.	1.1
Cc1ccc(C2N[C@@H](C(=O)O)C(C)(C)S2)cc1 (stereo not given in full)	0.78	-0.6
CCC(=O)Oc1ccc2[nH]c(C)c(C)c2c1	1.3	-6.6
Cc1cc(C)c(COc2ccc3c(c2C)OC(C)(C)CC3=O)c(C)c1	.	-0.8
CC1(C)Oc2[nH]c(=O)[nH]c(=O)c2C2c3ccccc3OCC21 (stereo not given)	-0.35	1.5
CC(C)c1nc2ccccc2n1CCOc1ccccc1	.	1.4
c1ccc(Nc2nc3ccccc3n3nnnc23)cc1	-0.41	1.5
CCOC(=O)c1c(Sc2ccccc2)cnn1C(=O)Nc1cccc(Cl)c1	.	2.8
O=C1NC(=O)C(=C2CCCCC2)S1	.	-0.9
O=C1C(C=NCc2cccs2)=C(O)c2ccccc21	0.35	0.8
CCOC(=O)C1CCN(C(=O)c2ccccc2N(C)S(C)(=O)=O)CC1	-0.58	-1.9
Cn1/c(=N/NC(=O)CCc2ccc(S(=O)(=O)N3CCOCC3)cc2)sc2ccccc21	.	-3.2
COC(=O)C(C)Sc1nc2ccsc2c(=O)n1Cc1ccccc1 (stereo not given)	.	3.4
CCOC(=O)C1=CN(C2CCCC2)C=C(C(=O)OCC)C1c1ccccc1C	1.1	0.2
FC12CC3CC(F)(CC(C1)C3=C(C(F)(F)F)C(F)(F)F)C2	.	-1.1
CCn1c2ccccc2c2cc(C3C(C(=O)OC)=C(C)NC4=C3C(=O)CC(c3ccco3)C4)ccc21 (stereo not given)	2.2	-0.8
CNC(=O)/C=C1\NC(C)(C)Cc2c1ccc1ccccc21	-2.1	-1.3
CCN(CC)c1ncc2c(NCc3ccccc3)nc(SCc3ccccc3)nc2n1	.	3.0
N#CC1(Nc2cccc(C(F)(F)F)c2)CCCCCC1	.	5.0
Cc1cc(N2CCN(C)CC2)nc(SCC2COc3ccccc3O2)n1 (stereo not given)	.	-1.3
Cc1cc(NS(=O)(=O)c2ccc(F)c(Cl)c2)no1	.	3.9
COc1ccc(CCN=C2CCc3ccccc3N2)cc1OC	.	1.3
O=C(CCOc1ccccc1)Nc1nc2c(ccc3ccccc32)s1	.	3.8
Cc1ccc(S(=O)(=O)NC2c3cccc4cccc(c34)C2Sc2ccccn2)cc1 (stereo not given)	.	1.5
CCCNC(=O)c1ccc(N2CC3CC(C2)c2cccc(=O)n2C3)c(NC(=O)Nc2cccc(OC)c2)c1 (stereo not given)	-1.3	-4.0
N#Cc1cn(CCOc2ccccc2F)c2ccccc12	-0.66	-0.4
O=C(Nc1cccc(-c2nn[nH]n2)c1)c1ccc(Br)o1	-2.1*	2.7
CN(Cc1ccccc1)Cc1ccco1	0.38	0.3
COc1ccc(-c2nc(S(=O)(=O)c3ccccc3)c(NCC3CCCO3)o2)cc1 (stereo not given)	.	1.7
COCCNC(=O)c1ccccc1NC(=O)c1ccco1	-0.49	-0.5
Cc1ccc(-n2nc3c(=O)n(CCCC(=O)N4CCCCC4)nc(C)c3c2C)cc1	.	-0.4
CCN(C(=O)Cn1cnc2c(nc3n2CCCCC3)c1=O)c1cccc(Cl)c1	1.6	-2.1
O=C(Sc1cccs1)c1csc(C2COc3ccccc3O2)n1 (stereo not given)	-0.35	1.5
C1CCC(N2CCN(C3CCCC3)CC2)C1	-0.24	3.8
CN1CCc2[nH]c3ccc(Cl)cc3c2C1	1	-5.7
O=C(Nc1cccnc1)c1cccc(C(=O)Nc2cccnc2)c1	-0.82	8.7
O=C(OCc1nnc(-c2ccccc2)o1)c1cccc(S(=O)(=O)N2CCc3ccccc32)c1	.	-1.3
NC(=O)C1(N2CCCCC2)CCN(C(=O)C2CCCCC2)CC1	0.66	2.9
COc1ccc(C(c2nnnn2C2CCCCC2)N2CCC(C)CC2)cc1OC (stereo not given)	-1.7	3.1
Cc1nn(-c2ccc(F)cc2)c(Cl)c1/C=C/C(=O)N1CCC(C(N)=O)CC1	.	-0.1
C=CCn1c(C)cc(C(=O)CSc2nnc(-c3ccccc3F)n2C)c1C	.	-4.4
C#CCSCc1nc2ccccc2[nH]1	1.3	-2.9
CCCCCn1c(=NC(=O)c2ccncc2)c(C#N)cc2c(=O)n3ccccc3nc21	.	-1.1
CCN(CC(O)c1cccc(O)c1)C(=S)Nc1ccc(S(=O)(=O)N2CCOCC2)cc1 (stereo not given)	.	3.5
CCC(=O)N/N=c1/sc2ccccc2n1C	-0.85	2.6
CC(Sc1nnc(C(C)NC(=O)c2ccccc2)n1C)C(=O)Nc1ccc2c(c1)OCO2 (stereo not given)	0.56	1.3
Cc1ccc(OCC(=O)N(C)C)c(C)c1	.	-0.7
Cc1cc(C)c2c(=O)[nH]n(C3CCCCC3)c2n1	-0.15	-0.6
NC(=O)CSc1ccc(-c2ccccc2)nn1	0.047	1.7
Cc1cccc(N2CCN(C(c3nnnn3C3CCCC3)C(C)C)CC2)c1C (stereo not given)	-1.7	1.3
CCOC(=O)/C=C(\C)N1N=C2c3ccc(OC)cc3CCC2C1c1ccc(OC)cc1 (stereo not given)	.	-2.0
Cc1ccc(C(=O)Cn2c(C)csc2=Nc2ccccc2)cc1	.	0.3

Given as comma-separated lines: entries from further up
smiles,KSHV LANA nucl,Ab BasE inh
CN1CCc2[nH]c3ccc(Cl)cc3c2C1,1,-5.7
Cc1ccc(C(=O)Cn2c(C)csc2=Nc2ccccc2)cc1,.,0.3

Further records.
SMILES	KSHV LANA nucl	Ab BasE inh
O=C1CC(=O)Nc2ccccc2N1	0.067	-0.2
CCCCC(=O)Nc1ccc(S(=O)(=O)NC(C)(C)C)cc1	0.62	3.6
COc1ccc2oc(C(=O)OCC(=O)Nc3cccnc3Cl)c(C)c2c1	.	4.9
CC12CNCC(C)(CN(C(=O)CCC(=O)O)C1)C2=O	0.28	0.5
CC1CCCC(C)N1C(=O)COC(=O)/C=C/c1ccc(Br)o1 (stereo not given)	.	-3.5
CCOC(=O)c1cc(-c2ccc(Cl)cc2)oc1/C=N/OC(=O)c1ccco1	0.74	-0.5
CC1CCCN(C(=O)COC(=O)Cc2n[nH]c(=O)c3ccccc23)C1 (stereo not given)	.	1.1
Nc1c(C(=O)c2ccccc2O)cnn1C(=S)NC1CCCCC1	.	2.7
CN1c2ccccc2C2=C(C(c3cccnc3)C(C#N)=C(N)O2)S1(=O)=O (stereo not given)	1.9	-3.9
O=C1c2cccc3c(N4CCOCC4)ccc(c23)C(=O)N1c1ccccc1	-3.1*	13
CCN(Cc1cc(OC)c(OC)c(OC)c1)C(=S)Nc1cccc(SC)c1	.	-1.1
Nc1nc2ccc(S(=O)(=O)c3ccccc3)cc2[nH]1	0.88	-2.3
N#Cc1ccc(C(=O)OC2CCCCC2=O)cc1 (stereo not given)	.	4.3
O=C(COc1coc(CN2CCN(Cc3ccccc3)CC2)cc1=O)NCC1CCCO1 (stereo not given)	1.1	-0.7
COc1ccc(-c2csc(N)n2)cc1OC	-0.26	1.6
CCCn1c(=O)n(C)c(=O)c2c(SCc3cc(=O)n4ccsc4n3)nc(CC(C)C)nc21	.	1.7
COc1ccc2c(c1OC)C(=O)OC2CC(=O)c1ccccc1 (stereo not given)	0.42	2.3
COc1ccc(Cl)cc1C(=O)CSc1nnnn1C1CCCCC1	0.29	-1.9
CC1=C(C(N)=O)C(c2ccccc2)n2ncnc2N1 (stereo not given)	0.64	1.8
N#C/C=C1\SCC(=O)N1CC(O)c1ccc(Cl)cc1 (stereo not given)	.	-1.5
N#Cc1c(-c2ccccc2)noc1/C=C/NCc1ccccc1	-0.99	.
CCCCn1c(SCc2nc(-c3ccccc3Cl)no2)nc2ccccc2c1=O	.	1.3
NC(=O)c1cnc2n(c1=O)CCS2	.	0.9
CCc1ccc2c(CN3CCc4ccccc43)cc(=O)oc2c1	.	1.0
CN(CCNC(=O)c1nc(-c2cccnc2)no1)C1CCCCC1	-0.042	-0.8
COc1ccc(CCNC(=O)CCn2c(=O)c3cccn3c3cccnc32)c(OC)c1	-0.38	-0.1
COc1ccc(S(=O)(=O)N2Cc3ccccc3CC2C(=O)NCc2ccc3c(c2)OCO3)cc1 (stereo not given)	.	0.1
Cn1c(CNC(=O)c2ccccc2F)nnc1SCC(=O)Nc1nnc(C2CCCCC2)s1	-0.81	2.2
CC1(C)CC(=O)C2=C(C1)Nc1ncnn1C2c1ccccc1 (stereo not given)	0.14	-2.1
CCOC(=O)/C(C#N)=C/c1sccc1C	-0.21	0.8
Cc1cc(C)c(C#N)c(SC(F)F)n1	.	1.2
COc1cc2c(C#N)c(OC)nc(N)c2c(N)n1	.	0.0
COc1cccc(C(=O)CC(C#N)c2ccc(F)cc2)c1 (stereo not given)	0.082	.
COC(=O)c1ccccc1NC(=O)NC1CCCCC1	.	0.4
Cc1cc(C)cc(OC(C)C(=O)NCCCn2ccnc2)c1 (stereo not given)	-0.27	-0.2
Cn1nc(C(=O)Nc2cc(C(F)(F)F)ccc2N2CCOCC2)c2ccccc2c1=O	.	-0.7
CCC1(C)CC(=O)c2c(ccc3oc(C(=O)O)c(C)c23)O1 (stereo not given)	1.1	1.1
Cc1cccc(N=Cc2cccc(O)c2)c1	0.17	0.2
c1coc(-c2nc3ccc4ccccc4c3c3c2CCCC3)c1	.	0.8
CC(C)(C)c1cc(NC(=O)c2ccc(C#N)cc2)on1	.	0.5
Cc1cnc(NC(=O)c2ccccc2C(F)(F)F)s1	.	2.9
Cc1cc(=O)oc2cc(OC(C)C(=O)Nc3ccccc3)ccc12 (stereo not given)	0.56	0.1
CC(=O)N(O)CCCCCNC(=O)CCC(=O)N(O)CCCCCNC(=O)CCC(=O)N(O)CCCCCN	0.43&2.9&-0.62	-3.1&0.5
CCN(CCN(C)C)C(=O)Cn1nc(Cc2ccncc2)c2ccccc2c1=O	-0.12	-0.3
CCOc1ncccc1C(=O)OCC(=O)Nc1ccc(Br)c(C)c1	.	0.7
C/C(=N\NC(=S)Nc1ccccc1C)c1ccc(O)cc1	.	1.5
O=C(CCCSc1nc2ccccc2[nH]1)NC1=NCCS1	.	-2.4
O=C(CSc1nncn1-c1ccccc1)CSc1nncn1-c1ccccc1	.	-2.0
COC(=O)c1c(C)nn(C(=O)c2ccc(Cl)cc2)c1-c1snnc1C	0.28	-4.8
Cc1noc(C)c1-c1nnc(-c2cccc(C(F)(F)F)c2)o1	-0.85	-0.1
O=C(NCCN1CCOCC1)c1c(O)nc2ccccn2c1=O	-0.68	1.3
Cc1ccc2c(c1)=C(c1sc(N)nc1O)C(=O)N=2	0.15	2.6
O=C(Nc1ccc(F)cc1)c1cc(=O)[nH]c2ccccc12	-0.2	0.3
CC(C)CC(C(=O)c1ccccc1)c1ccccc1 (stereo not given)	.	1.3
CC1CCc2onc(C(=O)N(C)c3ccccc3)c2C1 (stereo not given)	.	-0.7
CC(Sc1nnc(N)s1)C(=O)NCCC1=CCCCC1 (stereo not given)	.	2.1
CCOC(=O)c1sc2nc(CN3CCCCC3)nc(N3CCCC3)c2c1C	.	-3.2
CCCn1c(N)c(C(=O)CSc2ncn[nH]2)c(=O)n(C)c1=O	.	-1.4
O=C1C=CC(=O)N1c1ccc2ccccc2c1	.	3.2
O=S(=O)(c1cccc(-c2nnc(SCc3cn4ccsc4n3)n2-c2ccccc2)c1)N1CCCC1	.	2.5
Nc1nc(SCCOc2ccccc2)nc(-c2ccncc2)n1	.	1.9
CCNc1nc2ccccc2n1Cc1cccc(Cl)c1	-0.071	.
NNc1nccc(C(F)(F)F)n1	-0.23	2.7

16 structures from above, sorted by SMILES length, low to high:
SMILES	KSHV LANA nucl	Ab BasE inh
NNc1nccc(C(F)(F)F)n1	-0.23	2.7
O=C1C=CC(=O)N1c1ccc2ccccc2c1	.	3.2
CCNc1nc2ccccc2n1Cc1cccc(Cl)c1	-0.071	.
CC(C)CC(C(=O)c1ccccc1)c1ccccc1 (stereo not given)	.	1.3
CC(Sc1nnc(N)s1)C(=O)NCCC1=CCCCC1 (stereo not given)	.	2.1
CC1CCc2onc(C(=O)N(C)c3ccccc3)c2C1 (stereo not given)	.	-0.7
Nc1nc(SCCOc2ccccc2)nc(-c2ccncc2)n1	.	1.9
C/C(=N\NC(=S)Nc1ccccc1C)c1ccc(O)cc1	.	1.5
O=C(Nc1ccc(F)cc1)c1cc(=O)[nH]c2ccccc12	-0.2	0.3
CCOc1ncccc1C(=O)OCC(=O)Nc1ccc(Br)c(C)c1	.	0.7
Cc1noc(C)c1-c1nnc(-c2cccc(C(F)(F)F)c2)o1	-0.85	-0.1
O=C(CSc1nncn1-c1ccccc1)CSc1nncn1-c1ccccc1	.	-2.0
CCOC(=O)c1sc2nc(CN3CCCCC3)nc(N3CCCC3)c2c1C	.	-3.2
COC(=O)c1c(C)nn(C(=O)c2ccc(Cl)cc2)c1-c1snnc1C	0.28	-4.8
O=S(=O)(c1cccc(-c2nnc(SCc3cn4ccsc4n3)n2-c2ccccc2)c1)N1CCCC1	.	2.5
CC(=O)N(O)CCCCCNC(=O)CCC(=O)N(O)CCCCCNC(=O)CCC(=O)N(O)CCCCCN	0.43&2.9&-0.62	-3.1&0.5
